AmpC nodet inh – AmpC beta-lactamase inhibition, detergent-free assay; 1.8% of 71,000 active; AID 585; Potency, µM (top dose mostly 28.7 µM), for inactives: top-dose activity change, negative = inhibition; AmpC nitrocefin hydrolysis, absorbance 480 nm, no detergent; potencies from a single point are estimates; P00811; active = falling curve, for most hits resting on a single point; inconclusive = weak or doubtful change; inactive = flat or rising curve; note: % of control where 0% means no effect; about half of the hits show no inhibition at the top dose; a quarter of the inactives give rising signals
Target sequence (P00811 whole entry, looked up): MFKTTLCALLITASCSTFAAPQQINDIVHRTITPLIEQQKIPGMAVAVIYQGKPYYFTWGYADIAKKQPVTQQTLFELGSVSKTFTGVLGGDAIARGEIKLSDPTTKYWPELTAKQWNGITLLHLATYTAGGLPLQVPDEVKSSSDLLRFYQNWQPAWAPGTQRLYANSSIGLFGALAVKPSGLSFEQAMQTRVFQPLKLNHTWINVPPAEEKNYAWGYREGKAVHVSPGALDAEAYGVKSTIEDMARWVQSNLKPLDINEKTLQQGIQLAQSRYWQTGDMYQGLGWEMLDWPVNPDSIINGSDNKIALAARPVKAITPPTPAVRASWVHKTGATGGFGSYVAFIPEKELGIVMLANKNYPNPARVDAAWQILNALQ
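AmpC, 20 mM phosphate pH 7.0; 15 min cpd preinc, RT; start with nitrocefin (800 uM stock); A480 kinetic read, 20 s intervals, 4 min. No-enzyme wells = negative control.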
Numbers without * were called inactive; u = inconclusive; & = joins results of further samples; [ ] = dose if it differs, or a comment. Potency is the fitted concentration of half-maximal effect.

SMILES	AmpC nodet inh
CCOc1ccc(N(CC(=O)O)S(=O)(=O)c2cccnc2)cc1	5%
O=C(NC1CCCC1)c1ccc(CS(=O)(=O)c2ccc(Br)cc2)o1	4µM*[single pt active]
CC(C)Cn1c(SC(C)C(=O)Nc2ccc3c(c2)OCCO3)nc2ccccc2c1=O (centres undefined)	35%
N#Cc1cc2ccccc2nc1SCc1ccccn1	-2%
Oc1cnc2ccccc2c1CN1CCOCC1	-7%
O=C(CSc1nnc(NC(=O)c2ccco2)s1)NC1CCCC1	0%
CCc1ccccc1NC(=O)N1C2CCCC1CC(NC(=O)C(C)(C)C)C2 (centres undefined)	6%
Nc1nc(Cl)nc2c1ncn2[C@@H]1O[C@@H](CO)[C@@H](O)[C@H]1O	4%
c1ccc(CCn2nnnc2CN2CCN(C3CCCC3)CC2)cc1	2%
CCOc1ccc(OCC)c(NC(=O)C2CCN(c3nn4c(=O)cc(C)nc4s3)CC2)c1	113%
CCOC(=O)Cc1csc(/C(=N/O)C(N)=O)n1	-6%
CC1CCCN(Cc2nc3c(c(=O)n(C)c(=O)n3C)n2CCc2ccccc2)C1 (centres undefined)	74%
COc1ccc(NC(=O)C2CCCCN2S(=O)(=O)c2ccc(F)cc2)c(OC)c1 (centres undefined)	22%
COc1cc(CC(=O)OCC(=O)Nc2ncc(Cl)cc2Cl)cc(OC)c1OC	11%
O=C(NCc1ccco1)c1ccc(NC(=O)C2COc3ccccc3O2)cc1 (centres undefined)	-12%
CC(=O)c1cccc(NC(=O)C2C3C=CC(C4CC34)C2C(=O)O)c1 (centres undefined)	0%
COc1ccc(C)cc1N(CC(=O)NC1CCCC1)C(=O)CCC(=O)Nc1cc(C)on1	46%
CCCCn1c(=O)n(CC(O)c2ccccc2)c(=O)c2c1ncn2C1CCCC1 (centres undefined)	71%
CCCCc1ccc(NC(=O)C2CCN(S(C)(=O)=O)CC2)cc1	16%
NC(N)=NN=Cc1c(Cl)cccc1Cl	7%
Cc1c(C(=O)NCC2CCCO2)sc2nc(-c3ccc(F)cc3)cn12 (centres undefined)	89%
O=C(Nc1nc(-c2cccs2)cs1)c1ccc(S(=O)(=O)N2CCCCC2)cc1	u
COc1ccc(OC)c(NS(=O)(=O)c2ccc(Cl)s2)c1	-5%
O=C(CCOc1ccccc1)NCC(c1ccco1)N1CCCCC1 (centres undefined)	24%
COc1ccc2c(c1OC)C(=O)OC2Nn1cncn1 (centres undefined)	-7%

Following part
SMILES	AmpC nodet inh
COc1ccc(-c2nc(N3CCCC3)nc3nn4c(C)cc(C)nc4c23)cc1	57%
COc1ccccc1-c1noc(-c2ccccc2)n1	29%
NC(=O)C1(N2CCCCC2)CCN(C(=O)CSc2nc3ccccc3s2)CC1	74%
N#Cc1ccc(CN2CCC3(CC2)CCN(C(=O)c2cnccn2)CC3)cc1	43%
CN1CC[C@@]2(CCCN(C(=O)c3cccc(F)c3)C2)C1	2%
CCc1noc(C)c1C(=O)N1CCCC1	-7%
CCCCCc1nnc(NC(=O)Cc2cccs2)s1	13µM*
CCCN1Cc2cccc(C(=O)NCc3ccccc3)c2C1=O	15%
COc1c2occc2c(OC)c2c(=O)cc(C)oc12	-2%[12.8 µM]
Cc1cccc(C)c1OCCOCCN1CCN(C)CC1	26%
CCN(CC)S(=O)(=O)c1ccc(/C(O)=C2/C(=O)C(=O)N(CCOC)C2c2ccccc2)cc1 (centres undefined)	-18%
O=C1NC(=O)C2(Cc3c(nc4ccccn4c3=O)N3CCCCCC32)C(=O)N1Cc1ccccc1 (centres undefined)	75%
CCOC(=O)N1CCN(c2c(NCCCN(CC)Cc3ccccc3)c(=O)c2=O)CC1	-10%
COc1cccc(S(=O)(=O)Nc2ccc(C(=O)NCc3ccco3)cc2)c1	-16%
CC(=O)Nc1ccc(NC(=O)C2CC(=O)N(c3cccc(C)c3C)C2)cc1 (centres undefined)	13%
O=C(O)c1ccccc1OP(=O)(O)O	-29%[12.8 µM]
COc1cccc(C(=O)Cn2c(=N)n(C)c3ccccc32)c1	2%
CCOCCNC(=O)c1ccccc1C(=O)NCCOCC	-1%
Cc1cccc(NC(=O)c2cnc3ccccn3c2=O)c1	37%
CCCc1c(C)c2cccc(C)c2[nH]c1=O	-2%
COC(=O)c1ccc(C(NC(=O)OCc2ccccc2)/C(=C/[C@@H](C)C(=O)NCc2ccc(S(C)(=O)=O)cc2)c2cccnc2)cc1 (some centres undefined)	123%
Cc1ccc(C2Nc3ccccc3-c3nc4ccccc4n32)o1 (centres undefined)	-18%
Cc1n[nH]c(=O)nc1NC1CCCCC1	-2%
CN(C)S(=O)(=O)c1ccc(S(=O)(=O)Nc2ccc3c(c2)oc2ccccc23)cc1	u
COc1cc2nc(N3CCN(C(=O)[C@@H]4CCCO4)CC3)nc(N)c2cc1OC	4%[12.8 µM]

Next entries follow.
SMILES	AmpC nodet inh
O=C(c1cc2ccccc2oc1=O)N1CCN(c2ccccn2)CC1	8%
O=C(c1ccncc1)N1CCC[C@@]2(CCN(Cc3nccs3)C2)C1	28%
Cc1cccc(-n2c(Cc3cc(=O)[nH]c(=O)[nH]3)nnc2SCC(=O)NCc2ccco2)c1	9%
CC(=O)c1ccc(NC(=O)N[C@@H](CC(C)C)C(=O)O)cc1	10%
COc1ccc(CNC(=O)C(C)Cc2ccccc2)cc1O (centres undefined)	-2%
Cc1ccc(S(=O)(=O)N2CCC(C(=O)N3CCC(C(=O)NCC4CCCO4)CC3)CC2)cc1 (centres undefined)	70%
CCc1ccc(CCC(=O)Nc2nc(CC(C)=O)ns2)o1	44%
CC(=O)Nc1cccc(NC(=O)CCn2c(=O)sc3ccccc32)c1	-2%
Cc1ccc(CCN2CC(C(=O)N3CCC4(CC3)OCCO4)CC2=O)cc1 (centres undefined)	20%
COc1ccc(/C(O)=C(\C#N)c2nc3ccccc3n2C)cc1OC	27%
O=C(NCCSc1c[nH]c2ccccc12)c1ccc(Br)o1	-4%
Cc1ccc(OCc2nn3c(-c4n[nH]c5c4CCC5)nnc3s2)cc1	11%
Cc1ccc(NS(=O)(=O)c2cccc(C(=O)N3CCOCC3)c2)cc1	5%
O=C(CCCOc1ccccc1)Nc1nnc(C2CCCO2)s1 (centres undefined)	10µM*[single pt active]
CN(Cc1ccccc1)C(=O)c1cc(-c2ccc(Br)cc2)on1	2%
c1ccc(Cn2nnc3c(N4CCN(Cc5ccc6c(c5)OCO6)CC4)ncnc32)cc1	64%
NCc1ccc(S(N)(=O)=O)cc1	5%[12.8 µM]
CCCCOc1c(Cl)cc(CNC(C)(C)CO)cc1OCC	-5%
O=C1OC(Nc2nc3ccccc3s2)c2ccccc21 (centres undefined)	-3%
Cn1c(NC(=O)c2ccc(Br)o2)cc(=O)n(C)c1=O	-5%
COc1nc(NCCc2ccc(OC)c(OC)c2)nc(NC(C)(C)CO)n1	15%
Cc1cc2c(cc1Cl)N(C(=O)Nc1ccnc3ccccc13)CC2	30%
CCOc1ccc2[nH]c(=O)c(CN(CCc3ccccc3)C(=O)c3cnccn3)cc2c1	71%
Cc1ccc2nc3c(cc(C(N)=S)c(=N)n3CCCOC(C)C)c(=O)n2c1	21%
Cn1c(=O)c2c(ncn2CC(=O)NC(C)(C)C)n(C)c1=O	-17%

Remaining list, next part:
SMILES	AmpC nodet inh
CCCCOn1c(C)c(C(=O)OCC)c2c3nonc3ccc21	12%
Cc1nc2sc(C(c3cccs3)N3CCN(c4ccccc4)CC3)c(O)n2n1 (centres undefined)	4%
CCn1c(=O)c(C(=O)NCCN2CCCCC2)c(O)c2ccccc21	16%
CC(C)(C)C(=O)CP(=O)(O)O	3%[5.75 µM]
O=C(COc1ccccc1Cl)NCc1ccncc1	-2%
CCn1c(SCC(=O)Nc2nccs2)nnc1-c1ccncc1	-18%
Cc1oc(-c2ccc(Cl)cc2)nc1CN1CCCC(C(=O)NCc2cccnc2)C1 (centres undefined)	124%
COCCOC(=O)C1=C(C)Nc2ncnn2C1c1ccccc1 (centres undefined)	13%
CS(=O)(=O)NCCSCc1ccco1	3%
COc1ccc(N2CCN(CC(=O)Nc3nc4c(s3)CC(C)CC4)CC2)cc1 (centres undefined)	119%
O=C(O)c1ccc2c(c1)NC(=O)C(N1CCCC1)S2 (centres undefined)	-10%
CC(=O)Nc1ccc(NC(=O)C(C)Oc2ccccc2F)cc1 (centres undefined)	8%
O=C(NCCc1ccncc1)Nc1ccc(Cl)cc1	4%
CC(=O)Nc1ccc(S(=O)(=O)NCC2CCC(C(=O)NCCCN3CCCC3=O)CC2)cc1 (centres undefined)	-14%
O=C(CN1C2CCC1CC(O)(c1cccnc1)C2)Nc1ccc2c(c1)OCO2 (centres undefined)	-5%
CCOc1ccc(Nc2cc(C)nc(N3CCOCC3)n2)cc1	28%
Cc1cc(C)c2c(c1)OC(O)(C(F)F)CC2=O (centres undefined)	-12%
C[C@]1(C2CCCC2)Cc2cc(OCC(=O)O)c(Cl)c(Cl)c2C1=O	4%
CN=C1SC(CC(=O)NCCc2ccc(OC)c(OC)c2)C(=O)N1C (centres undefined)	-11%
COC(=O)C(F)(Sc1c(C)n(C)n(-c2ccccc2)c1=O)C(F)(F)F (centres undefined)	2%
COc1cc(C(=O)OCC(=O)N2CCCC2)cc(OC)c1OC	0%
CCOC(=O)C1CCCN(Cc2ccccc2F)C1 (centres undefined)	10%
CCCn1nnnc1SCC(=O)c1ccc2c(c1)OCCO2	0%
COc1ccc2c(c1)CCc1c(C(=O)Nc3ccc(OC)c(OC)c3)noc1-2	38%
CN(C)CCCN1C(=O)C(=O)/C(=C(/O)c2ccc3c(c2)OCCO3)C1c1ccccn1 (centres undefined)	-4%

The list goes on; it opens with the two that closed the last part.
SMILES	AmpC nodet inh
COc1ccc2c(c1)CCc1c(C(=O)Nc3ccc(OC)c(OC)c3)noc1-2	38%
CN(C)CCCN1C(=O)C(=O)/C(=C(/O)c2ccc3c(c2)OCCO3)C1c1ccccn1 (centres undefined)	-4%
CCCCC(CC)COC(=O)c1ccccc1C(=O)O (centres undefined)	-3%
Cc1cccc(C)c1NC(=O)CSc1nnnn1C	-11%
O=C(O)c1ccccc1S(=O)(=O)Cc1ccccc1	-4%
Cc1cc(-c2cc(N)n(-c3ccccc3)n2)c(C)n1C1CCCC1	24%
C[N+]1(C)C2CC(OC(=O)C(CO)c3ccccc3)CC1[C@@H]1O[C@H]21 (some centres undefined)	0%&1%
COc1ccc(OC)c(N)c1	8%
CN(C)C(=O)C12CCC(C)(c3nc4ccccc4nc31)C2(C)C (centres undefined)	17%
COc1ccc(CCNC(=O)COc2nsnc2N2CCOCC2)cc1OC	22%
O=c1cc(-c2ccccc2)c2c([nH]1)CCCC2	2%
O=C1CSC(c2ccncc2)N1Cc1ccco1 (centres undefined)	-10%
Cc1cc(C)c(-c2cc(C(=O)Nc3c(C)n(C)n(-c4ccccc4)c3=O)[nH]n2)c(O)c1	-14%
O=C(Cn1c(-c2cncs2)nc2ccccc21)NC1CCCC1	10%
COc1ccc2[nH]cc(C(=O)CN3CCCC(C)C3)c2c1 (centres undefined)	-11%
COc1ccc(NC(=O)CCN2CCCC(C)C2)cc1 (centres undefined)	-13%
CCC(C)NC(=O)C1CCC(=O)N(c2cc(OC)c(OC)c(OC)c2)C1c1ccc(OC)cc1 (centres undefined)	47%
CCCn1cnc2cc(NCc3ccccn3)ccc21	0%
Cc1nnc(NC(=O)C2CCCN(c3ncccn3)C2)s1 (centres undefined)	22%
O=C(COc1cccc2ccccc12)N1CCN(c2ccccc2)CC1	44%
O=C(O)C1C2CCC(O2)C1C(=O)NCc1ccncc1 (centres undefined)	-13%
CC(=O)c1ccc(NC(=O)CSc2nnc(Cn3c(=O)sc4ccccc43)n2C)cc1	30%
CSCCC(NC(C)=O)C(=O)Oc1ccc2c3c(c(=O)oc2c1)CCCC3 (centres undefined)	-6%
CSCSC1=C(C#N)C(c2ccccc2Cl)C(C(C)=O)=C(C)N1 (centres undefined)	u
COc1ccc(NC(=O)CCNC(C)=O)cc1NS(=O)(=O)c1ccc(F)cc1	-10%
CC(=O)Nc1cccc(OCC(=O)Nc2ccc(F)cc2)c1	2%
C=CC=O	-4%
CCn1cc(C2N3CC4(C)CN2CC(C)(C3)C4=O)c2ccccc21 (centres undefined)	25%
CC(=O)CSc1nc2ccc(Nc3nc(N4CCOCC4)nc(N4CCOCC4)n3)cc2s1	132%
COc1cc(CNc2ccc3c(c2)CCC3)cc(OC)c1O	34%

By substructure, those above with a furan ring, fused or not (14)
SMILES	AmpC nodet inh
O=C(NC1CCCC1)c1ccc(CS(=O)(=O)c2ccc(Br)cc2)o1	4µM*[single pt active]
O=C(CSc1nnc(NC(=O)c2ccco2)s1)NC1CCCC1	0%
O=C(NCc1ccco1)c1ccc(NC(=O)C2COc3ccccc3O2)cc1 (centres undefined)	-12%
O=C(CCOc1ccccc1)NCC(c1ccco1)N1CCCCC1 (centres undefined)	24%
COc1c2occc2c(OC)c2c(=O)cc(C)oc12	-2%[12.8 µM]
COc1cccc(S(=O)(=O)Nc2ccc(C(=O)NCc3ccco3)cc2)c1	-16%
Cc1ccc(C2Nc3ccccc3-c3nc4ccccc4n32)o1 (centres undefined)	-18%
CN(C)S(=O)(=O)c1ccc(S(=O)(=O)Nc2ccc3c(c2)oc2ccccc23)cc1	u
Cc1cccc(-n2c(Cc3cc(=O)[nH]c(=O)[nH]3)nnc2SCC(=O)NCc2ccco2)c1	9%
CCc1ccc(CCC(=O)Nc2nc(CC(C)=O)ns2)o1	44%
O=C(NCCSc1c[nH]c2ccccc12)c1ccc(Br)o1	-4%
Cn1c(NC(=O)c2ccc(Br)o2)cc(=O)n(C)c1=O	-5%
CS(=O)(=O)NCCSCc1ccco1	3%
O=C1CSC(c2ccncc2)N1Cc1ccco1 (centres undefined)	-10%

A portion of the library, so the mix of outcomes need not match the whole.
